Screening data (PubChem BioAssay)
S aureus helic: inhibitors of S. aureus replicative helicase, primary screen, biochemical, fluorescence unwinding readout; purified S. aureus helicase, fluorescence unwinding assay; about half of the hits fall short of the stated cut; inhibition, %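 (tested at about 80 µM)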; 120,000 compounds, 0.05% hits; AID 485395, 2010;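 active means both duplicates at 50% or more, or one of them with a favoured structure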;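 further: 0% = mean of negative control wells and 100% = mean of positive control wells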
MgrA DNA FP: S. aureus MgrA activity modulators, primary screen, biochemical, S. aureus Newman, fluorescence polarization | MgrA-DNA binding | inhibition, %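 (about 10 µg/mL by stock and volumes)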 | 84,000 compounds, 0.13% hits;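 active means above 50% in either of two replicates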;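 further: 0% = protein plus DNA without compound and 100% = DNA alone without protein; higher means less MgrA bound to DNA so lower polarization; one replicate is shown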
The depositor's hits bear a star; x = not tested or not shown; & = joins results of further samples.

SMILES | S aureus helic | MgrA DNA FP
CC(C)N=C1SC(CC(=O)Nc2ccccc2)C(=O)N1C(C)C (configuration not stated) | 13 | 3.2
c1ccc(CNc2ccc(-c3nc4ncccc4o3)cc2)nc1 | 19 | -4.2
COC(=O)c1c(-c2ccccc2Cl)noc1C | x | 1.5
Cc1nnc(/N=C/N(C)C)s1 | x | -0.4
O=C(Nc1cc2c(oc1=O)CCCC2=O)c1ccccc1 | x | 0.2
CSc1sc(C(=O)OC(C)C)c2c1C(=O)CC(C)(C)C2 | 25 | x
CCCCC(=Nc1ccccc1)C1=C(O)CCCC1=O | 3 | 0.9
CC(=O)Nc1ccc(S(N)(=O)=O)cc1 | 7 | 1.5
CCn1c(C(=O)NCc2ccccc2)cc2sccc21 | 4 | x
CCSc1nnc2n(Cc3ccccc3OC)c(=O)c3ccccc3n12 | -3 | x
CS(=O)(=O)NC1c2cccc3cccc(c23)C1N1CCOCC1 (configuration not stated) | -21 | x
COc1ccc(C(=O)COC(=O)c2ccc3c(=O)n4c(nc3c2)CCCCC4)c(OC)c1 | -5 | x
O=C(NC(=S)Nc1ccccc1)c1ccc2nonc2c1 | -19 | x
Cc1ccc2c(COC(=O)CN3C(=O)C4CC=CCC4C3=O)cc(=O)oc2c1 (configuration not stated) | -10 | x
COC(=O)CNC(c1ccccc1)c1cc(Br)ccc1N (configuration not stated) | -14 | x
Cc1ccc(-c2nc(C)sc2CC(=O)NC2=NCCS2)cc1 | -4 | x
Cc1ccc(-c2noc(CCC(=O)NCCN3CCN(c4cccc(Cl)c4)CC3)n2)cc1 | 15 | x
CC(C)(C)C(=O)CSc1nnc(Nc2ccccc2)s1 | 4 | x
Nn1c(SCCCC(=O)c2ccc(F)cc2)nnc1-c1cccnc1 | 1 | x
CCCc1cc2c(c(NC(C)=O)n1)c(=O)oc1ccccc12 | -1 | -4.0
Cn1nc(C(F)(F)F)c2cc(C(=O)Nc3ccc(F)cc3)sc21 | x | -1.6
CCOC(=O)Cc1cc(=O)[nH]c(/N=C(\N)Nc2ccc(C)cc2C)n1 | 7 | x
COC(=O)c1cc2n(n1)CCCNC2=O | x | 1.2
CC(N)C(=O)OCc1ccccc1 (configuration not stated) | x | -0.7
NCCCSc1ccccc1 | 10 | x
N#CC1(c2nc3ccccc3[nH]2)Cc2ccccc2N2CCCCC21 (configuration not stated) | -16 | x
CCc1ccc2nc(NC(=O)CCc3c(C)noc3C)sc2c1 | -6 | x
CCc1c(C)sc(NC(=S)NCc2ccco2)c1C(=O)OC | 17 | 8.6
COc1ccc(Cn2c(=O)[nH]c3cc(C(=O)N4CCN(c5ccc(OC)cc5)CC4)ccc3c2=O)cc1 | -5 | x
COC(=O)c1sccc1N/N=C1\C(=O)c2ccccc2N(C)S1(=O)=O | 22 | x
Cc1ccc(C=Nc2ccccc2Sc2c(C)n[nH]c2C)cc1 | 10 | -3.6
CC1CC(C)CN(C(=O)c2cc3sc(Cl)cc3n2C)C1 (configuration not stated) | 16 | -0.2
O=C(COc1ccccc1)Nc1nc2cc3c(cc2s1)OCO3 | 5 | x
CCC1CCCCN1C(=O)CSC1CCCCC1 (configuration not stated) | 4 | -0.1
CC(NC(=O)Nc1ccccn1)N1C(=O)C2C3C=CC(C3)C2C1=O (configuration not stated) | -3 | -1.1
COc1ccc2cc(-c3nc4ccccc4n3C)c(=O)oc2c1 | -15 | x
COc1cccc(-n2c(O)c(C3=c4cc(Br)ccc4=NC3=O)sc2=S)c1 | x | -1.7
COCC(=O)Nc1c(C)cc(C)cc1C | 4 | -0.1
CCOc1ccc(NC(=O)Cn2cccc2)cc1 | 13 | 0.0
CCCNC(=S)N1CCC(NC(=O)Nc2ccc(C)cc2)CC1 | 5 | 0.4
CCOC(=O)C(Cc1ccccc1)C(=O)Nc1nccs1 (configuration not stated) | 10 | x
COC(=O)C1=C(C)N(C(C)C)C(=O)C1(NC(=O)C1CCCCC1)C(F)(F)F (configuration not stated) | 25 | -1.9
CCOC(=O)Cc1csc(NC(=O)CSc2nc(=O)[nH]c3c2CCC3)n1 | -10 | x
Cc1cc(C)nc(/N=C/c2c(O)c3ccccc3oc2=O)n1 | 2 | x
CCNC(=O)c1cccc(OCc2c(C)noc2C)c1 | -11 | x
O=C(Cc1ccc(F)cc1)N1CCCCC1 | 13 | -3.2
O=C(Nc1cccnc1)c1cccs1 | -2 | 1.9
Clc1ccc(CSc2nc3ccccc3s2)cc1 | -1 | -4.2

Reprinted from the part before: 3 compounds, then new ones.
SMILES | S aureus helic | MgrA DNA FP
O=C(Cc1ccc(F)cc1)N1CCCCC1 | 13 | -3.2
O=C(Nc1cccnc1)c1cccs1 | -2 | 1.9
Clc1ccc(CSc2nc3ccccc3s2)cc1 | -1 | -4.2
CCn1cc(S(=O)(=O)N2CCc3ccccc3C2)cn1 | -2 | -0.2
N=C1C(c2nc3ccccc3[nH]2)=C(O)CN1C1CCCCCC1 | 8 | 0.0
OCCNc1cc(-c2ccccc2)nc(-c2ccc(Br)cc2)n1 | 15 | x
O=C(O)C1CC2CCC1CC2 (configuration not stated) | x | -4.7
CCCCC1(COC(=O)c2ccc(OC)cc2)C(=O)N(c2ccccc2)N(c2ccccc2)C1=O | x | -2.0
COc1cc(C2Sc3ccccc3NC3=C2C(=O)OC3)cc(OC)c1OC (configuration not stated) | -15 | 0.5
CC1CCN(c2nc3ccccc3nc2N2CCC(C)CC2)CC1 | -5 | x
N#CC1(NC(=O)COC(=O)c2ccccc2C(F)(F)F)CCCC1 | -10 | x
CCOC(=O)C(CC)Sc1nnc(COc2ccc(Cl)c(C)c2)n1CC (configuration not stated) | -4 | -1.4
O=C(NCCN1CCc2ccccc2C1)c1cc(-c2ccc(Br)s2)nc2ccccc12 | 14 | 0.2
O=C(CN1C(=O)CSc2ncccc21)NCc1ccccc1 | 9 | x
COc1cc(C(=O)OCc2cc(=O)c(O)co2)ccc1OC(F)F | 12 | x
CCC1=NCC(=O)Nc2ccc(Cl)cc21 | -5 | 1.7
Cc1cnc(NC(=O)c2ccco2)s1 | -4 | x
Cc1ccc(OCC(=O)N2CCC(N3CCCCCC3)CC2)cc1 | 2 | x
CN1CCCc2cc(-c3ccnc4ccccc34)ccc21 | 10 | 0.1
CC(=O)NCc1c(Cl)cccc1Sc1ccc(Cl)cc1 | x | 0.2
CN(C)C(=O)CSc1nnc(C23CC4CC(CC(C4)C2)C3)o1 | 5 | 5.8
Cc1csc(SCC(=O)c2ccc3c(c2)NC(=O)CO3)n1 | -11 | x
CC(C)(C)CC(C)(C)c1ccc(OCCOCC[N+](C)(C)Cc2ccccc2)cc1 | x | -1.2&-4.8
O=C(OCC(=O)N1CCOCC1)c1ccc(Cl)cc1 | 30 | x
C=CCNC(=O)c1cc(Br)cs1 | 7 | 0.6
COC(=O)c1cc2c(s1)CCCC2 | -9 | x
CCOC(=O)CNc1nc(Cl)nc(N2CCOCC2)n1 | 16 | x

4 compounds already listed, arranged by their value in MgrA DNA FP, falling.
Compound	S aureus helic	MgrA DNA FP
CN(C)C(=O)CSc1nnc(C23CC4CC(CC(C4)C2)C3)o1	5	5.8
CCC1=NCC(=O)Nc2ccc(Cl)cc21	-5	1.7
CC(=O)NCc1c(Cl)cccc1Sc1ccc(Cl)cc1	x	0.2
CN1CCCc2cc(-c3ccnc4ccccc34)ccc21	10	0.1

Other records follow.
SMILES | S aureus helic | MgrA DNA FP
Cc1noc(C)c1COC(=O)c1ccc2c(c1)C(=O)N(Cc1ccccc1)C2=O | 32 | x
O=C(Cn1ncc2ccccc21)N1CCC(Cc2ccccc2)CC1 | 18 | 0.4
CSc1nsc(SCC(=O)Nc2ccccc2)n1 | 6 | 6.7
Cc1ccc(S(=O)(=O)Cn2nnnc2CN(Cc2ccco2)Cc2cccs2)cc1 | 9 | -1.0
Cc1c(/C=N/NC(N)=S)sc2ccccc12 | x | 5.5
CCOc1cc(NC(=O)[C@@H](NC(=O)c2ccco2)C(C)C)c(OCC)cc1NC(=O)c1ccccc1 | 4 | x
Cc1cc(C(=O)Nc2ccc(N3CCOCC3)c(Cl)c2)c(C)o1 | x | -1.9
O=C(O)C1C2C=CC(C2)C1C(=O)OCc1ccccc1 (configuration not stated) | 3 | -0.9
CCc1ccccc1NC(=O)CCN1C(=O)c2ccccc2C1=O | 10 | 2.1
Cc1cc(C)c2[nH]c(=O)c(CN(C3CCCCC3)C(c3nnnn3Cc3ccco3)C(C)C)cc2c1 (configuration not stated) | -7 | 16
CCOC(=O)C(C#N)C(c1ccco1)c1ccccc1OC (configuration not stated) | 3 | x
N#Cc1nc(=O)n(-c2ccc(OC(F)(F)F)cc2)c(N)c1N=Cc1ccc(C(F)(F)F)cc1 | x | 0.9
O=C(O)c1cc(-n2c(-c3cnccn3)n[nH]c2=S)ccc1Cl | 6 | -5.3
CC(C)(O)c1nnn(Cc2ccccc2)c1C(C)(C)O | -9 | -0.2
CC(C)[C@H](O)CC[C@@H](C)[C@H]1CC[C@H]2[C@@H]3CC=C4C[C@@H](O)CC[C@]4(C)[C@H]3CC[C@]12C | x | 0.3
CCCCC(=O)Nc1ccc2[nH]c(=O)oc2c1 | -4 | x
O=S(=O)(c1ccc(Sc2nnc(-c3cccs3)n2CC2CCCO2)nc1)N1CCCC1 (configuration not stated) | -5 | x
CC(=O)n1nc(-c2cccnc2)nc1NCc1ccco1 | -8 | x
N#Cc1cn(-c2ccccc2)nc1N | x | 0.0
C=CCn1c(SCC(=O)Nc2ccc(C)cc2)nc2sc3c(c2c1=O)CCCC3 | 19 | 1.1
CC(C)C(=O)Nc1cccc(Cl)c1Cl | -12 | 3.0
Cc1cc2c(c(=O)o1)C1(C(=O)Nc3ccc(Br)cc31)C(C#N)=C(N)O2 (configuration not stated) | x | -1.3
CCCCCC12CCC(O)(CC1)CC2 | 7 | x
CN(C)c1cccc(C(=O)N(Cc2ccc3c(c2)OCO3)C2CCCC2)c1 | -15 | x

An excerpt of these results, in markdown.
| Structure | S aureus helic | MgrA DNA FP |
| --- | --- | --- |
| CC(C)C(=O)Nc1cccc(Cl)c1Cl | -12 | 3.0 |
| C=CCn1c(SCC(=O)Nc2ccc(C)cc2)nc2sc3c(c2c1=O)CCCC3 | 19 | 1.1 |
| N#Cc1cn(-c2ccccc2)nc1N | x | 0.0 |
| CN(C)c1cccc(C(=O)N(Cc2ccc3c(c2)OCO3)C2CCCC2)c1 | -15 | x |

The results go on.
SMILES | S aureus helic | MgrA DNA FP
CN1C(=O)NC(NC(=O)c2ccccc2)(C(F)(F)F)C1=O (configuration not stated) | 10 | x
CC(CN1CCCC1)OC(=O)c1ccccc1Br (configuration not stated) | 5 | x
CCOc1ccc2nc(SCC(=O)N3CCOCC3)sc2c1 | 2 | 0.6
O=c1cc(N2CCc3ccccc3C2)[nH]c(=O)n1-c1ccccc1Cl | 3 | x
COc1ccc(C(=O)CSc2nc3c(cc2C#N)CCC3)cc1 | 15 | x
O=C(NCc1cccnc1)C1c2ccccc2C(=O)N1Cc1ccco1 (configuration not stated) | -26 | x
CC(=O)Oc1cnc2ccc(C)cc2c1 | -1 | -2.2
O=C(CSc1nc2sc3c(c2c(=O)[nH]1)CCCC3)Nc1nccs1 | 3 | x
CCN1CCN(S(=O)(=O)c2ccc3c4c(cccc24)C(=O)N3CC)CC1 | 8 | x
CCc1ccc(NC(=O)CN(C(=O)N2CCN(CC)CC2)S(=O)(=O)c2ccc(C)cc2)cc1 | 7 | x
CC1=CC(=O)N(CCC#N)c2ccccc2N1 | -21 | x
Cc1nnc(C)n1/N=C/c1ccc(Cl)c(Cl)c1 | -16 | 1.2
COc1ccc(CCNC(=O)CSc2nc3c(cnn3-c3ccc(Cl)cc3)c(=O)[nH]2)cc1OC | -27 | x
CC(=O)NC(Cc1c[nH]c2ccccc12)C(=O)N1CCC(=O)CC1 (configuration not stated) | -10 | x
CN(Cc1cccc(Cl)c1)C1CCN(C(=O)NCc2ccccc2)CC1 | -17 | x
CC(C)OC(=O)COc1ccc2ccc(=O)oc2c1 | 9 | x
CCOc1cccc(NC(=O)C2CC(=O)N(C)C(=Nc3ccc(Br)cc3)S2)c1 (configuration not stated) | x | 1.2
O=C(Nc1c[nH]c(=O)[nH]c1=O)c1cccc(N2C(=O)CCC2=O)c1 | -30 | x
CCCN(CCC)CN1C(=O)S/C(=C/c2ccc(N(CC)CC)cc2)C1=O | 8 | 1.1
CCCN(CCC)C(=O)CC(c1ccccc1)c1ccccc1O (configuration not stated) | 8 | x
CC(C(=O)N=Nc1c(O)[nH]c2ccccc12)n1cnc2ccccc2c1=O (configuration not stated) | -12 | x
O=[N+]([O-])c1ccc2[nH]c3ccc([N+](=O)[O-])cc3c2c1 | x | 3.7
O=c1c(Cc2ccccc2)c(O)c2cccc3c4ccccc4n1c23 | x | -0.9
COc1cc(C(C)(C)C)c(OC)cc1C(C)(C)C | x | -0.9
Cc1cc2c(cc1S(=O)(=O)N1CC(C)CC(C)C1)OCC(=O)N2 (configuration not stated) | 0 | 1.5
CCCOc1ccc(-c2nc(NCCN)c3ccccc3n2)cc1 | 13 | x
N#Cc1cccc(NC(=S)NC(=O)c2cccs2)c1 | -1 | 5.2
O=C(Sc1ccc(Oc2ccc(SC(=O)c3ccco3)cc2)cc1)c1ccco1 | 1 | 3.6
CCCn1nnnc1NCc1ccc(F)cc1 | 9 | -1.8
O=C1C=C(c2ccccc2)C(O)(c2ccccc2)C1 (configuration not stated) | -14 | -1.1
O=C(O)c1ncoc1-c1cccc(Cl)c1 | x | -2.1
C=CCN(C(=O)CSc1nncn2c1cc1occc12)c1ccccc1 | -30 | x
COc1ccc(NC(=O)c2ccc(CSc3ccccn3)cc2)cc1 | -14 | 0.3
CN1C(c2ccccc2)CC(=O)CC1c1ccccc1 (configuration not stated) | 8 | -1.8

An excerpt; rates above refer to the full screens.
